Assay outcomes as filed in PubChem BioAssay.
Measles inh = inhibitors of measles virus growth in infected cells. infected Vero cells, GFP fluorescence, 64 h; active compounds read low. z-score (no concentration beside the values). 33,000 tested, 0.1% active. AID 745;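 active = z-score under -3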;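 also: score is relative to mean and SD of the compound wells of a plate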
Numbers without * were called inactive. Only part of the results is shown. The share of hits here may be higher or lower than overall.

nr	canonical_smiles	Measles inh
1	CCOC(=O)c1cnc2c(C)cc(C)cc2c1Nc1cccc(Cl)c1	0.63
2	Cc1ccnc(NS(=O)(=O)c2ccc(NS(=O)(=O)c3cccs3)cc2)n1	0.25
3	COc1ccc(Cl)cc1NC(=O)CSc1nc2c(c(=O)n1-c1ccc(Cl)cc1)SCC2	-1.73
4	Cc1ccc(NC(=O)C(=O)NCC(C)C)cc1C	0.09
5	O=C1c2ccc(Oc3cccc([N+](=O)[O-])c3)cc2C(=O)N1c1ccccc1C(F)(F)F	1.5
6	OCc1cnn(-c2ccccc2)n1	-0.08
7	COc1ccc(C2C(C(=O)Nc3ccc(Br)cc3C)c3ccccc3C(=O)N2C)cc1 (configuration not stated)	-0.56
8	Clc1ccccc1C1Nc2ccc3ccccc3c2C2C=CCC21 (configuration not stated)	-0.69
9	Cc1ccc(Cl)cc1NC(=O)c1ccc([N+](=O)[O-])o1	-1.4
10	CCOC(=O)c1ccccc1NC(=O)c1cc(OC)cc(OC)c1	-0.3
11	COc1cc2c(cc1OC)C(C)N(C(=O)c1cccc([N+](=O)[O-])c1)CC2 (configuration not stated)	-1.13
12	Cc1nn(-c2ccccc2)c(OC(=O)c2cccs2)c1Sc1ccccc1	-0.52
13	Cc1ccc(C(=O)Nc2nc(C34CC5CC(CC(C5)C3)C4)cs2)cc1	-1.08
14	CCCC(=O)Nc1c2c(nn1-c1ccc(Cl)cc1)CS(=O)(=O)C2	0.47
15	COC(=O)C1=C(C)NC(=O)NC1c1cc(Br)ccc1OC (configuration not stated)	-0.09
16	CCSc1nc2c(c(=O)n1CC)C(C)(C1CCCCC1)Cc1ccccc1-2 (configuration not stated)	-0.65
17	Cc1nc2nc(SCC(=O)Nc3cccc(Cl)c3)nn2c(C)c1Cc1ccccc1	-0.16
18	COc1ccccc1N1CCN(C(=O)c2cn(C3CCCCC3)c(=O)c3c2c2ccccc2n3C)CC1	-1.32
19	Cc1ccccc1C(=O)OC(C)CN1CCN(C)CC1 (configuration not stated)	0.08
20	NC1=NC(=O)CC(C(=O)Nc2ccc(-c3ccccc3)cc2)S1 (configuration not stated)	-0.2
21	COc1ccc(C(=O)Oc2c(S(=O)(=O)c3ccccc3)c(C)nn2-c2ccc(C)cc2C)cc1	0.44
22	COc1ccc(-c2cnnn2-c2ccc(NC(=O)c3ccc(S(=O)(=O)N4CCCC4)cc3)cc2)cc1	-0.49
23	O=C1CCC(=O)N1c1ccc(NCc2ccc(Cl)cc2)c([N+](=O)[O-])c1	0.77
24	CC(C)c1ccc(C2NC(=O)NC(O)(C(F)(F)F)C2C(=O)c2ccc(Cl)cc2)cc1 (configuration not stated)	-0.62
25	O=C(c1ccc(N2CCCC2=O)cc1)N1CCN(c2ccccc2F)CC1	0.82
26	O=C(CN1CCN(c2ccccn2)CC1)Nc1ccc2c(c1)OCO2	0.28
27	CC(=O)N1CCc2cc(Br)cc(S(=O)(=O)Nc3ccnc4ccccc34)c21	0.27
28	O=C1CC(C(=O)Nc2ccccc2)SC(=Nc2ccccc2)N1 (configuration not stated)	-0.19
29	Cc1ccccc1Cc1c(C)nc2c(C(=O)NC3CCCC(C)C3C)cnn2c1C (configuration not stated)	0.35
30	Cc1cc(C)c(C#N)c(SCC(=O)Nc2nccs2)n1	0.22
31	Cc1cc(NC(=O)c2ccc(N3C(=O)CCC3=O)cc2)nc2c1c(=O)oc1ccccc12	0.29
32	S=c1nc(-c2ccccc2)n(CC2CCCO2)c2c1CCCC2 (configuration not stated)	-0.24
33	COC(=O)CSc1nnc(CNC(=O)c2ccccc2F)n1-c1ccccc1	-0.9
34	O=C(CCC(=O)N1N=C(c2ccc(Br)cc2)CC1c1ccc(Br)cc1)Nc1ccccc1 (configuration not stated)	0.07
35	O=C(CN1CCN(Cc2ccc(F)cc2)C1=O)NCCc1ccccc1	0.89
36	COc1ccc(C(=O)Nc2ncn[nH]2)cc1OC	-0.06
37	O=C(c1ccccc1F)N1CCN(c2ccc([N+](=O)[O-])cc2Cl)CC1	0.37
38	CCOC(=O)C1CCN(C(=O)c2cc3cc4ccc(C)cc4nc3o2)CC1	-1.73
39	COc1cc(Cl)c(C)cc1NC(=O)C1CCN(S(=O)(=O)c2cccnc2)CC1	-2.08
40	Fc1ccccc1CSC1=NCCN1	-0.54
41	CCN(CC)c1ccc(NC(=O)c2ccc(-c3ccc([N+](=O)[O-])cc3C)o2)cc1	-1.28
42	Cc1onc(-c2ccccc2Cl)c1C(=O)Nc1ccc2oc(-c3ccc(Cl)cc3)nc2c1	-0.04
43	Brc1ccc(-c2nnc3n2CCC3)cc1	2.27
44	CCC1CCCCN1C(=O)CSc1nnc(-c2ccc(Cl)s2)o1 (configuration not stated)	0.83
45	CCCOc1ccc(C2C(C(=O)OC)=C(C)N=C3SC(CC)C(=O)N32)cc1 (configuration not stated)	0.99
46	O=C(c1cccn2c(=O)c3cc(Br)ccc3nc12)N1CCOCC1	1.68
47	CCOC(=O)C1=C(C)N=C2SC(C)C(=O)N2C1c1ccc(OC(C)=O)cc1 (configuration not stated)	-1.22
48	Cc1cc(N2CCCCC2)nc2ccc(NC(=O)CCC(=O)NC3CC3)cc12	1.11
49	O=C(c1ccc(COCC(F)(F)F)o1)N1CCCCCC1	0.14
50	Cc1ccc(S(=O)(=O)Nc2cc3sc(=O)oc3c3ccccc23)cc1	0.21
51	S=c1sc2c(s1)SC1C3CCC(C3)C1S2 (configuration not stated)	0.04
52	O=C(c1c(Cl)nc(Cl)c(Cl)c1Cl)N1CCOCC1	-0.91
53	O=c1oc(COc2ccc(Cl)cc2)nc2ccc(Br)cc12	-0.48
54	Nc1cc(=O)[nH]c(SCC(=O)Nc2ccc(F)cc2)n1	-1.39
55	CCCCOC(=O)c1cccc(NC(=O)C(F)(F)F)c1	0.36
56	CC1=C(C(=O)OCc2ccc(C)cc2)C(c2ccc(F)cc2)NC(=O)N1 (configuration not stated)	0.29
57	O=C(NC(Nc1nc2c(s1)CCCC2)(C(F)(F)F)C(F)(F)F)c1ccccc1	-0.91
58	Cc1cc(Br)ccc1NS(=O)(=O)c1cccc2nsnc12	0.78
59	CC(=NS(=O)(=O)c1ccc(C)cc1)N1CCCN(S(=O)(=O)c2ccc(C)cc2)C1C(C)C (configuration not stated)	-0.35
60	O=C(CSc1nnc(COc2ccccc2)o1)N1CCCc2ccccc21	0.53

(listing goes on)
nr	canonical_smiles	Measles inh
61	O=C(NC1CCCC1)c1cc(-c2cccc(Cl)c2)on1	-0.72
62	CC1=C(C(=O)OC2CCCCC2)C(c2ccc([N+](=O)[O-])cc2)n2c(nc3ccccc32)N1 (configuration not stated)	0.68
63	COC(=O)c1sc(=S)n(-c2cc(Cl)ccc2C)c1N	-1.4
64	O=C1CN(C(=O)CC2CCCCC2)C(c2ccccc2)c2cc(F)ccc2N1 (configuration not stated)	-0.48
65	CC1=C(C(=O)OCC(C)C)C(c2cccs2)C2=C(CC(c3cccs3)CC2=O)N1 (configuration not stated)	-0.04
66	O=C(c1ccc(F)cc1)N1CCC(N2CCOCC2)CC1	-0.11
67	O=C(NCc1ccc(F)cc1)c1nn2c(C(F)(F)F)cc(-c3cccs3)nc2c1Br	-0.45
68	COc1ccc(NC(=O)c2cc(-c3ccc(Cl)cc3)on2)c(OC)c1	0.7
69	COc1cccc(C2C(=O)N(C3CCC(C)CC3)CC(=O)N2CCc2ccccc2)c1OC (configuration not stated)	0.12
70	CCOc1ccccc1NC(=O)C1=C(C)NC(=S)NC1c1cccc(Cl)c1 (configuration not stated)	-0.86
71	COCC(C)NC(=O)c1cc(-c2ccc(Cl)cc2)on1 (configuration not stated)	-0.72
72	O=C(Nc1ccc(NC(=O)c2cccs2)cc1)c1cccc(F)c1	0.34
73	CC(=O)Nc1ccc(S(=O)(=O)N2CCN(C(=O)c3cccc([N+](=O)[O-])c3)CC2)cc1	0.25
74	CCOc1ccc(N2C(=O)C3C4C=CC(C4=C(C)C)C3C2=O)cc1 (configuration not stated)	-0.53
75	Cc1sc2ncn(CC(=O)Nc3ccc4c(c3)OCCO4)c(=O)c2c1S(=O)(=O)N1CCOCC1	0.13
76	Cc1ccc(-c2noc(CN3CCN(c4ccccn4)CC3)n2)cc1	-0.24
77	COC(=O)c1ccc(NC(=O)CCS(=O)(=O)c2ccc(OC)cc2)cc1	-0.6
78	Cc1ccc(-n2cc(-c3ccccc3)c3c(NCC4CCCO4)ncnc32)cc1Cl (configuration not stated)	-0.16
79	CCOC(=O)c1c(NC(=O)c2cccc([N+](=O)[O-])c2C)sc2c1CCC(CC)C2 (configuration not stated)	-1
80	Cc1ccc2cc3cc(C(=O)NC4CCN(Cc5ccccc5)CC4)sc3nc2c1	-1.66
81	COc1cccc(C2C3=C(CC(C)(C)CC3=O)Nc3nc(SCc4cccc(C)c4)[nH]c(=O)c32)c1 (configuration not stated)	0.28
82	COC(=O)CCC(=O)Nc1ccc(S(=O)(=O)N2CCC(C)CC2)cc1	-0.41
83	Cc1ccc(-c2cn(-c3ccc(C)c(F)c3)c(=O)[nH]2)cc1	-1.03
84	Cc1[nH]c2ccccc2c1SCCNC(=O)c1ccc(Br)o1	0.51
85	Cc1ccc(-n2c(=O)c3sccc3n(Cc3ccccc3F)c2=O)cc1	0.07
86	Cc1c(C(=O)Nc2ccc(-c3nc4cc(C(C)C)ccc4o3)cc2)cccc1[N+](=O)[O-]	0.78
87	CCOc1ccc(CC(=O)Nc2sc3c(c2C(N)=O)CCCCCC3)cc1OCC	0.4
88	CC(=O)C1=C(O)C(=O)N(Cc2ccccc2)C1c1ccc(Br)cc1 (configuration not stated)	-1.01
89	NC(=O)Cn1c(CSc2nc3ccccc3n2Cc2ccccc2)nc2ccccc21	-0.39
90	Cc1ccccc1OCC(=O)N1CCCc2ccccc21	-0.16
91	O=[N+]([O-])c1c(NCCN2CCCC2)ccc2nsnc12	-0.02
92	NC(=O)c1c(NC(=O)COc2ccc(Cl)cc2)sc2c1CCC2	0.44
93	O=C1C(c2ccccc2)Nc2c3ccccc3nc(=S)n21 (configuration not stated)	0.07
94	Cc1onc(-c2ccccc2)c1C(=O)n1nnc2ccccc21	0.43
95	CCOc1ccc(C2C=C(c3ccc(CC)cc3)Nc3ncnn32)cc1OC (configuration not stated)	-0.04
96	COc1ccc(NC(=O)c2cccc(-n3c(C)ccc3C)c2)c(OC)c1	0.11
97	Cc1ccccc1-n1c(=O)c2ccccc2n(Cc2ccc([N+](=O)[O-])cc2)c1=O	-0.36
98	O=[N+]([O-])c1ccc(-c2nc(C3CCCCC3)no2)cc1	0.29
99	COc1cc2[nH]c(=O)n(CCC(=O)N3CCN(c4cccc(C)c4C)CC3)c(=O)c2cc1OC	-0.65
100	Cc1cc(C)c(NC(=O)C2CCCN2CCC(C)C)c(C)c1 (configuration not stated)	0.84
101	CC(C)CC(=O)Nc1nnc(C2CCCCC2)s1	0.87
102	Cc1ccc(NC(=O)CN2CCN(C(=O)c3ccco3)CC2)cc1F	-0.3
103	COc1cc(OC)c(OC)cc1C=Cc1nc2ccccc2c(=O)n1-c1cccc(C(F)(F)F)c1	0.73
104	O=C(CSc1nnc(-c2cccnc2)n1Cc1ccccc1)NCc1ccccc1	-0.36
105	COC(=O)c1c(NC(=O)c2ccc(Cl)c([N+](=O)[O-])c2)sc2c1CCCC2	-0.69
106	CCCCn1c(C2CC(=O)N(c3ccccc3)C2)nc2ccccc21 (configuration not stated)	2.23
107	Cc1ccc(S(=O)(=O)C2(C(=O)N3CCCC(C)C3)CC2)cc1 (configuration not stated)	-0.12
108	Cc1csc(NC(=O)C2CCN(S(=O)(=O)c3ccc(Br)s3)CC2)n1	-0.66
109	CCCc1ccc(C2C3=C(Nc4c2c(=O)n(C)c(=O)n4C)c2ccccc2C3=O)cc1 (configuration not stated)	0.3
110	COc1ccc(C(NC(C)=O)c2ccc3cccnc3c2O)cc1 (configuration not stated)	-0.12
111	CCCCn1c(CCCO)nc2ccccc21	0.05
112	COc1cc(C2C(=O)N(C3CCCCC3)CC(=O)N2C2CCCCC2)ccc1O (configuration not stated)	0.31
113	Cc1ccc(-n2nc3c(c2NC(=O)c2ccc(Br)cc2)CS(=O)(=O)C3)c(C)c1	0.33
114	CCC(=O)Nc1cccc(-c2csc(-c3ccccc3)n2)c1	-0.62
115	N#CCSc1nc2ccsc2c(=O)n1Cc1ccc2c(c1)OCO2	1.57
116	CCC(c1ccccc1)c1nnc(N)s1 (configuration not stated)	0.74
117	CC(C)N1CCN(S(=O)(=O)c2ccc(Cl)cc2)CC1	-1.78
118	NC(=O)C1(N2CCCCC2)CCN(C(=O)c2ccc3c(=O)n(Cc4ccco4)c(=S)[nH]c3c2)CC1	-0.28
119	Cc1ccccc1C(=O)N1CC(=O)Nc2ccc(F)cc2C1c1ccccc1 (configuration not stated)	-0.06
120	CCCn1cnc2sc(C(=O)Nc3ccc([N+](=O)[O-])cc3)c(C)c2c1=O	0.06
